H5N1 CPE: MDCK cell protection from H5N1 avian flu; 0.07% of 96,000 active; cytopathic effect, luminescence, 72 h; active compounds read high; no value below 0 was filed and about half of the inactive calls have no number; reference of the scale not given here; inhibition, % at 50 µM; in the data active = inhibition above about 25%
Numbers without * were called inactive; i = inactive. The list is partial; rates above refer to the full screens.

smiles,H5N1 CPE
CCOC(=O)C(C)n1ncn2cccc2c1=O (stereo unspecified),i
Cc1ccccc1N1C(=O)C(Cl)=C(N2CCCCCC2)C1=O,0.2
O=C(CN1C(=O)CC(c2ccco2)Sc2ccccc21)NCC1CCCO1 (stereo unspecified),1.5
CCOC(=O)NC(CC(=O)O)c1ccc(OC)cc1 (stereo unspecified),i
Cc1ccc(/C(N)=N/OC(=O)c2cc(-c3ccccc3)nc3ccccc23)cc1,i
CCOC(=O)c1ccc2c(c1)N(CC(=O)N1CCCC1)C(=O)C(C)(C)O2,0.1
Cc1[nH]nc2c1C(c1ccc(Cl)cc1)C(C#N)=C(N)O2 (stereo unspecified),0.9
COCCNS(=O)(=O)c1ccc(-c2ccc(S(=O)(=O)NCCOC)cc2)cc1,i
O=S1(=O)CCN2C(c3ccc4c(c3)CCCC4)=CSC2=N1,i
O=C(Nc1ccccc1Cl)c1ccccc1Cl,i
O=C(Oc1c(-c2ccccc2)oc2ccccc2c1=O)c1ccccc1,0.1
O=C(NC1CCCCC1)c1ccc(CN2CCOCC2)cc1,i
Cc1ccc(C(=O)OCC(=O)Nc2cc(F)ccc2F)cc1NC(=O)c1ccco1,i
CCc1ccccc1NC(=O)CN1CCC(NC(=O)COC)CC1,0.8
CCC(C)NS(=O)(=O)c1ccc(S(=O)(=O)N2CCCC3(CCCCC3)C2)cc1 (stereo unspecified),8.5
COc1ccc(N2CCN(C(=O)c3cc4c(-c5cccc(OC)c5)nn(C)c4s3)CC2)cc1,i
CCCN(Cc1ccc(N(CC)CC)cc1)CC1CC1,8.8
COc1ccc(CCNC(=O)CSc2nc3ccccc3o2)cc1OC,i
CC(C)Cc1nc(C(N)=O)c2[nH]c(=O)n(-c3ccc(F)cc3)c2n1,i
COc1cccc(NCc2cc3c(C(C)(C)C)nn(-c4ccccc4)c3[nH]c2=O)c1,0.6
O=c1c(F)cn(C2CCCO2)c(=O)n1Cc1c(Cl)cccc1Cl (stereo unspecified),0.3
COc1ccc(NC(=O)c2ccc(N(C)S(C)(=O)=O)cc2)cc1OC,0.1
O=C(Nc1nccs1)c1ccc(Cl)s1,1.4
O=C(CSc1nnc(-c2ccccc2)o1)N1CCc2ccccc2C1,i
CCOC(=O)c1c(NC(=O)CSc2nnnn2C)sc(C)c1-c1ccc(C)cc1,i

Next section; the last 3 above are carried over.
smiles,H5N1 CPE
O=C(Nc1nccs1)c1ccc(Cl)s1,1.4
O=C(CSc1nnc(-c2ccccc2)o1)N1CCc2ccccc2C1,i
CCOC(=O)c1c(NC(=O)CSc2nnnn2C)sc(C)c1-c1ccc(C)cc1,i
CC(NC(=O)C(=O)NN=C1CCCCCC1)c1ccccc1 (stereo unspecified),0.3
O=C(Nc1cccc(F)c1)NC1CCCCC1,i
CN(CCNC(=O)CCNC(=O)Cn1ccc2ccccc2c1=O)Cc1ccccc1,0.6
CC(=O)N=c1ncn(CC(COC(C)=O)OC(C)=O)c2nc[nH]c12 (stereo unspecified),i
C=CCc1cccc2cc(C(=O)O)c(=O)oc12,i
O=C(O)CSc1nc(C(F)(F)F)cc(=O)n1-c1ccccc1,0.9
Cc1cc2ccccc2n1CCNC(=O)c1cccs1,0.5
CCCCN1C(=O)NC(NS(=O)(=O)c2ccc(N)cc2)(C(F)(F)F)C1=O (stereo unspecified),0.7
Cc1cc(Cl)ccc1OCC(=O)NCCCN1CCOCC1,0.6
c1ccc(CNC2=NCCS2)cc1,i
Cc1cccc(Oc2cc(N)cc([N+](=O)[O-])c2)c1,i
CCOC(=O)c1cnc(SCc2ccc(C(C)(C)C)cc2)nc1N,i
CCc1nc(N2CCC3(CC2)OCCO3)c2nnn(Cc3ccccc3Cl)c2n1,0.1
COc1ccc(Cn2nnnc2CN2CCc3ccccc3C2)cc1,1.6
COC(=O)C1=C(C)Nc2ncnn2C1c1ccccn1 (stereo unspecified),i
Cc1c(Cl)cccc1NC(=O)CC1NCCNC1=O (stereo unspecified),i
O=C(NCCCCC(NC(=O)c1ccc([N+](=O)[O-])cc1)C(=O)O)c1ccc([N+](=O)[O-])cc1 (stereo unspecified),i
O=C1CC(C(=O)Nc2cccc3ccccc23)C2(CCCC2)O1 (stereo unspecified),0.1
COc1cc(NC(=O)CSc2ccc3c(c2)OCCO3)cc(OC)c1OC,4.5
COc1ccc2cc(CN(Cc3cccnc3)S(=O)(=O)c3ccccc3)c(=O)[nH]c2c1,4.1
O=C(Nc1ccccc1)NC1(C(=O)N2CCN(c3ncccn3)CC2)CCCCC1,0.3
COc1ccc(CCNC(=O)c2cccnc2)cc1,0.4
CCCCC(=O)Nc1nn(CC(C)C)c2nc3ccccc3cc12,2.1
Cc1cccc(Nc2ccccc2C(=O)NCc2ccco2)c1C,i
CCOC(=O)c1c(NC(=O)CSc2nnc(C)s2)sc2c1CCN(C)C2,4.0

Following part:
smiles,H5N1 CPE
Cc1ccc(OCc2nnc(SCc3ccc(C#N)cc3)n2-c2ccc(C)cc2)cc1,i
CCOC(=O)c1c(C)[nH]c(C)c1C(=O)COC(=O)c1ccc(S(=O)(=O)N(CC)CC)cc1,3.2
Cn1c(=O)c2[nH]c(CNCc3ccccc3Cl)nc2n(C)c1=O,2.3
CCOC(=O)C1=C(C(C)=O)C(c2cccnc2)C(C#N)=C(N)O1 (stereo unspecified),i
COc1ccccc1N1CCN(c2nnc(-c3ccc(F)cc3)c3ccccc23)CC1,i
COc1cc(/C=C/C(=O)N(C)c2ccccc2C(=O)O)cc(OC)c1OC,0.4
COc1cccc(NC(=O)c2oc3ccccc3c2NC(=O)c2ccc3c(c2)OCO3)c1,i
Cc1cccc2c1[nH]c1nc(N/N=C\c3ccco3)nnc12,i
O=S1(=O)N=C(N2CCOCC2)c2ccccc21,i
C=CCNC(=O)NC(=S)c1ccccc1,i
Cc1cccc(C2NC(=O)c3c(sc(C)c3C)N2)c1O (stereo unspecified),1.1
Cn1c(CN2CCCCC2)c(C#N)c2ccccc21,0.5
CCOC(=O)N1CCN(C(=O)CCN2C(=O)COc3ccc(C)cc32)CC1,0.4
Cc1cc(C)cc(NC(=O)CC2NCCNC2=O)c1 (stereo unspecified),0.5
NC(=O)c1ccsc1NC(=O)C1CCCN1S(=O)(=O)c1ccc(Cl)cc1 (stereo unspecified),i
CC(=O)NCCCc1nc2ccccc2n1Cc1ccc(C)cc1,i
COC(=O)c1cn[nH]c1NC(=S)Nc1ccc(Cl)c(Cl)c1,i
O=C(c1ccc(N2CCCCC2)c([N+](=O)[O-])c1)N1CCOCC1,0.1
Cc1cc(Cl)c(S(=O)(=O)N2CCCC2)cc1OCC(=O)NC1CCCCC1,1.0
C=COCCNC(=O)Nc1ccc(Cl)c(Cl)c1,1.9
CCCOc1cccc(C(=O)N(Cc2ccco2)C2CCS(=O)(=O)C2)c1 (stereo unspecified),i
O=C(Cn1ccc2ccccc2c1=O)NCCC(=O)N1CCN(c2cccc(C(F)(F)F)c2)CC1,0.2
Cn1nnnc1Sc1ncnc2scc(-c3ccccc3)c12,0.1
Cc1ccc(NC(=O)c2cc([N+](=O)[O-])ccc2NCc2cccnc2)cc1Cl,i
COc1ccccc1NC(=O)CSc1nnc(Cn2c(=O)sc3ccccc32)n1C,0.3

Next section.
smiles,H5N1 CPE
O=C(NC1CCCCC1)C(c1ccccc1)N(C(=O)Cc1ccsc1)c1ccccc1 (stereo unspecified),1.0
CCN(CC)S(=O)(=O)c1ccc2[nH]cc(C(=O)NCCCN3CCCCC3C)c(=O)c2c1 (stereo unspecified),i
COc1ccc(NC(=O)NCc2cccnc2)cc1OC,0.6
CCCn1c(NC(=O)C2CCN(S(=O)(=O)c3cccs3)CC2)nc2ccccc21,1.9
C=C1C2(C(=O)NCc3ccco3)CCC(C2)C1(C)C (stereo unspecified),i
CCCCn1c(SCC(=O)OCC)nc2c1c(=O)[nH]c(=O)n2C,1.8
O=C(CSc1nnc2c(Cl)cc(C(F)(F)F)cn12)Nc1ccc2c(c1)OCO2,1.7
CCc1nnc(NS(=O)(=O)c2ccc(NC(=S)NC(=O)/C=C/c3ccc(C(C)C)cc3)cc2)s1,1.6
CC1(C)CC(=O)C2=C(C1)OC(N)=C(C#N)C21C(=O)N(Cc2ccccc2Cl)c2ccccc21 (stereo unspecified),i
COc1cccc(C(=O)NC2(C(F)(F)F)N=C3SCCN3C2=O)c1 (stereo unspecified),i
N=C(N)c1c(O)n(C2CCCCC2)c(=O)n(C2CCCCC2)c1=O,i
Cc1cc(=O)oc(C)c1C(=O)NCCc1ccc(F)cc1,i
Oc1cccc(Nc2ncnc3ccccc23)c1,i
Cc1ccc(CN2C(=O)CCC2C(=O)NCc2ccco2)cc1 (stereo unspecified),0.2
O=C1Nc2cc(Cl)c(Cl)cc2N(O)N1c1cccc(Cl)c1,i
O=C(Cc1cccc2ccccc12)NNC(=O)Nc1cccc(Cl)c1,0.2
COc1ccc(NC(=O)c2c3c(nc4ccccc24)CCC3)cc1,i
O=C(CN(Cc1ccccc1)C(=O)CCC(=O)Nc1ccccn1)NCc1ccco1,4.6
COc1cccc(-c2ccc(C#N)c(OC(=O)c3c(Cl)cccc3Cl)n2)c1,i
CSCCC(NC(=O)CCN1C(=O)c2ccccc2C1=O)C(=O)O (stereo unspecified),0.3
O=C(N/N=C/c1ccc(Br)cc1)c1ccccc1-n1cccc1,i
Cc1cc(C(=O)CSc2nnc(-c3ccccc3)n2-c2ccccc2)c(C)n1-c1ncn[nH]1,2.8
CCCn1c(C)cc(=O)c2cc(NC(=O)c3cnccn3)ccc21,0.0
CCOC(=O)c1c(NC(=O)CSc2nnc(Cc3csc(N)n3)n2C)sc(C)c1C,1.1
O=C(COC(=O)c1cc2ccccc2o1)c1ccccc1,1.2

3 compounds from above, ordered by molar mass, ascending.
smiles,H5N1 CPE
C=C1C2(C(=O)NCc3ccco3)CCC(C2)C1(C)C (stereo unspecified),i
CCCn1c(C)cc(=O)c2cc(NC(=O)c3cnccn3)ccc21,0.0
N=C(N)c1c(O)n(C2CCCCC2)c(=O)n(C2CCCCC2)c1=O,i

Individual results from the entries so far.
In H5N1 CPE, `O=C(NC1CCCCC1)C(c1ccccc1)N(C(=O)Cc1ccsc1)c1ccccc1` (stereo unspecified) has 1.0
In H5N1 CPE, `CCCCn1c(SCC(=O)OCC)nc2c1c(=O)[nH]c(=O)n2C` has 1.8
In H5N1 CPE, `CCOC(=O)N1CCN(C(=O)CCN2C(=O)COc3ccc(C)cc32)CC1` has 0.4

Next results:
smiles,H5N1 CPE
CC1=Nn2c(nnc2-c2cccs2)SC1,1.1
COc1ccc(-c2cn(-c3ccc(C)cc3)c(=O)n2CC(=O)Nc2ccc(OC)cc2OC)cc1,0.3
CC1Cc2ccccc2N1C(=O)CSc1nnc2sc3ccccc3n12 (stereo unspecified),i
COc1ccc(C(C(=O)NC2CCCCC2)N(CC2CCCO2)C(=O)CNC(=O)c2ccco2)cc1 (stereo unspecified),0.1
Cc1ccc(S(=O)(=O)NCCc2ccncc2)cc1,1.8
CC1(C(=O)NC2CCCCC2)CCC(=O)N1Cc1cccnc1 (stereo unspecified),0.7
O=C1OCCN1P(=O)(c1ccccc1)c1ccccc1,0.4
COCc1nnc(NC(=O)CCC2CCCCC2)s1,0.5
O=C1C=C(NCc2ccc(Cl)cc2)CC(c2ccco2)C1 (stereo unspecified),i
COc1ccc(S(=O)(=O)N(C)CC(=O)Nc2ccccc2OC)cc1,i
Cc1c(C#N)c2ccccc2n1CC(=O)NCc1cccnc1,i
COCCSc1nnc(NC(=O)C2CCCO2)s1 (stereo unspecified),0.6
COc1cccc(-c2ccc(C#N)c(OC(=O)c3ccc(Cl)cc3)n2)c1,i
COc1ccc(S(=O)(=O)NC(CC(=O)NCc2ccccc2OC)c2ccco2)cc1 (stereo unspecified),i
O=C(NC1CC2CCCC(C1)N2C(=O)N1CCCCC1)C1CCCCC1 (stereo unspecified),i
O=C(c1cccn2c(=O)c3cc(Br)ccc3nc12)N1CCC2(CC1)OCCO2,0.1
CNC(=O)c1ccc(OCc2ccccc2)c(OC)c1,i
CN1CC2=Cc3ccccc3OC23Oc2ccccc2C=C3C1,i
O=C(Nc1cccc(Br)c1)c1ccc2nc(N3C(=O)CCC3=O)sc2c1,i
CSc1nnc(-c2ccccc2Cl)o1,21
CCOC(=O)N1CCN(C(=O)COc2ccc(S(=O)(=O)NCC(C)C)cc2C)CC1,1.0
Cc1ccc2[nH]c3c(=O)n(Cc4ccncc4)cnc3c2c1,0.6
CCOC(=O)NC1(NCC(C)C)Oc2ccccc2O1,i
O=C(c1ccccc1)N1CCN(C(=O)c2cc3ccccc3o2)CC1,0.1
Cc1ccc(NC(=O)C(=O)NC2CCCCC2)cc1,i

Continued; it opens with the 3 that closed the last part.
smiles,H5N1 CPE
CCOC(=O)NC1(NCC(C)C)Oc2ccccc2O1,i
O=C(c1ccccc1)N1CCN(C(=O)c2cc3ccccc3o2)CC1,0.1
Cc1ccc(NC(=O)C(=O)NC2CCCCC2)cc1,i
COc1ccc(C(=O)NC(=S)N2CCCCC2)cc1,0.5
COc1ccc(/C=N/NC(=O)c2ccccc2)cc1CN1CCN(c2ccc(F)cc2)CC1,i
CCc1ccc2[nH]c(=O)c(CN(Cc3nnnn3C3CCCC3)C3CCCCC3)cc2c1,10
Cc1cc(C)nc(SCc2nnc(SCC(=O)OC3CCCCC3)o2)n1,i
O=P(O)(O)/C=C(\Cl)c1ccccc1,0.1
O=C(Nc1ccc(S(=O)(=O)NCc2cccnc2)cc1)c1ccco1,4.0
CCn1c(SCC(=O)OCc2ccccc2)nnc1-c1ccco1,i
Brc1ccc(-c2nnc3n2CCCCC3)cc1,0.4
CCOC(=O)c1ccc(NC(=O)NCCN2CCCCC2)cc1,0.3
CC(C)(C)NC(=O)Cn1c(SCC(=O)N2CCCCCC2)nc2ccccc21,i

From PubChem
